# Source: PubChem BioAssay
# LANA-H2A inh = blockers of LANA interaction with H2A/H2B – biochemical, FP readout, HTS, primary screen; Protein LANA1 (Human herpesvirus 8 type P (isolate GK18)), Q9QR71; cell-free LANA-H2A/H2B peptide, fluorescence polarization; inhibition, % (no concentration beside the values); 320,000 compounds, 0.6% hits; in the data active = inhibition mostly above about 10%, no sharp cut-off; inactive = mostly below about 6.7%;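 note: stock transfer was 7.5 nL into about 10 µL; 0% = median of vehicle wells and 100% = median of positive control wells; one replicate is shown; the record names a cut of 25% in any replicate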
# Ecoli growth = E. coli growth inhibition, primary screen, OD600; Escherichia coli growth, 23 h; hits give low values; OD600 absorbance (test concentration not listed); 330,000 compounds, 0.21% hits; AID 1053175, 2014;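 active = OD600 absorbance below the run mean of sample wells minus 3.6 SD, in any replicate, cut at about 0.56 in these data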;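 note: stock transfer was 300 nL into about 60 µL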
# HNF4A DNA FP = change in binding of human HNF4A to DNA, primary screen, biochemical, fluorescence polarization, FITC-DNA; 360,000 compounds, 0.3% hits; 1 h; activity change, % at 10 µM; in the data active = activity change above about 30%, passing the limit was not always enough;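 note: controls were the assay level and a saturating level of protein; the project sought stronger binding though the title names inhibitors; some compounds called inactive have numbers as strong as hits; positive values seem to mean higher polarization but the record does not say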
# B2AR ag = beta2AR agonists driving receptor internalization, primary screen, cell-based, FAP fluorogen, flow cytometry; Am2.2-beta2AR cells; reference of the scale not given here; response, % (concentration not given with the values); AID 504454, 2011; 340,000 compounds, 0.43% hits;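 active = response above a set limit, near 3 SD of response in nonfluorescent compounds, cut at about 42% in these data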;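 note: stock transfer was 100 nL into about 11 µL; a reference agonist was the positive control; negative values mostly stem from fluorescent compounds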
# Target sequence (P07550 whole entry, looked up): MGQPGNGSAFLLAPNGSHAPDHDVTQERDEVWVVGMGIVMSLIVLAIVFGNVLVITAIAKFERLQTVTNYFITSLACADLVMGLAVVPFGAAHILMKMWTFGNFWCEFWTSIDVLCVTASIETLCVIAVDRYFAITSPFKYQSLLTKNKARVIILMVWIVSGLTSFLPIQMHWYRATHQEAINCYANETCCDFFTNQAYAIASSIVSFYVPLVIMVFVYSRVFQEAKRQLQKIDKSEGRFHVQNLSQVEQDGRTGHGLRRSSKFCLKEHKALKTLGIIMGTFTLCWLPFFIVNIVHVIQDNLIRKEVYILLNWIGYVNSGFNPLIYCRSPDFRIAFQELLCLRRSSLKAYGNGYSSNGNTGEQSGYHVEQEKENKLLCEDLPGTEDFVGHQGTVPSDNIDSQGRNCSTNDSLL
# UCH37 inh = inhibitors of human UCH37 deubiquitinase, primary screen, biochemical, Ub-AMC cleavage, fluorescence; Ubiquitin carboxyl-terminal hydrolase isozyme L5 (Homo sapiens), Q9Y5K5; purified proteasome/UCH37; inhibition, % (test concentration not listed); 330,000 compounds, 0.33% hits;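 active = mean of two replicates above 20%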;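 note: 0% = compound-free wells with enzyme and 100% = wells lacking proteasome; stock transfer was 100 nL into about 20 µL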
# Target sequence (Q9Y5K5 whole entry, looked up): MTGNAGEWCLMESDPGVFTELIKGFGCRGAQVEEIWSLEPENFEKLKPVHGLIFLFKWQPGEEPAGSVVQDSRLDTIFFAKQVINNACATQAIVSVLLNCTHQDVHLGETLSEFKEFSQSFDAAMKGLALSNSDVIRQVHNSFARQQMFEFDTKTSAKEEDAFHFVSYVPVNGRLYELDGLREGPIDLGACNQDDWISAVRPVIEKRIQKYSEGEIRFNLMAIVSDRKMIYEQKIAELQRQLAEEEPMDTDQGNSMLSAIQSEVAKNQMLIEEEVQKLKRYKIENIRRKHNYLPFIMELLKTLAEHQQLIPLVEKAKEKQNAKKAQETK
#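 Signal – fluorescence, ex 355 nm, em 460 nm · System – Proteasome-bound UCH37 · Input – 0.15 nM proteasome as dispensed · Timing – 30 min preincubation with enzyme, 25 min cleavage at room temperature · Read-out basis – percent inhibition of cleavage signal versus uninhibited and no-proteasome wells · Medium – Tris-HCl pH 7.4 with ATP-MgCl2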
# Vif A3G = inhibitors of Vif binding to APOBEC3G peptide, primary screen, biochemical, TR-FRET, GST-Vif 1-94, biotin-A3G peptide, dose response retest (AID 1117319) | Virion infectivity factor (Human immunodeficiency virus type 1 group M subtype B (isolate … | TR-FRET GST-Vif / biotin-A3G peptide binding; higher % means a stronger effect; test concentration not given here; strong numbers were not always called active | inhibition, %, or IC50 in µM where a hit was titrated | 260,000 compounds, 0.57% hits;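 active = above the screen mean plus three standard deviations and confirmed in dose response; inconclusive = results disagree or hit not tested in dose response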;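 note: Vif residues 1-94 fused to GST binding biotinylated APOBEC3G peptide 110-148; 0% = full assay without inhibitor and 100% = GST in place of GST-Vif; retest series ran down from 100 µM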
# Bfl-1 A1 inh = caspase 3/7 activation in MEF A1-2A-BIM cells, primary screen, A1 inhibitor project, cell-based, luminescence, HTS. Caspase-Glo 3/7 luminescence, 3 h; percent of clofoctol response, vehicle zero. caspase activation, % (test concentration not listed). 330,000 compounds, 0.066% hits. AID 2462, 2010;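 active = over half of replicate activation scores above 10%, or exactly half above 10 with the replicate mean above 10; inconclusive = replicate mean below 10 yet half the replicates above 10; inactive = over half of replicates below 10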;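 note: wells of about 30 µL received 50 nL stock; many hits fall short of the cut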
# Numbers without * were called inactive; ? = inconclusive; · = no result given; & = joins results of further samples.
# Sample of the layout:
SMILES,LANA-H2A inh,Ecoli growth,HNF4A DNA FP,B2AR ag,UCH37 inh,Vif A3G,Bfl-1 A1 inh
COc1ccc(-c2[nH]c(-c3ccc4c(c3)OCO4)nc2-c2ccccc2)cc1,0.6,0.76,-4.3,-4,-93,1%,1.0
Cc1ccc(Oc2nc(-c3ccccn3)nc3ccccc23)cc1,2.7,0.64,2.4,-14,1.3,·,-0.2

# The whole of this part, previewed entries included:
SMILES,LANA-H2A inh,Ecoli growth,HNF4A DNA FP,B2AR ag,UCH37 inh,Vif A3G,Bfl-1 A1 inh
COc1ccc(-c2[nH]c(-c3ccc4c(c3)OCO4)nc2-c2ccccc2)cc1,0.6,0.76,-4.3,-4,-93,1%,1.0
Cc1ccc(Oc2nc(-c3ccccn3)nc3ccccc23)cc1,2.7,0.64,2.4,-14,1.3,·,-0.2
CCOC(=O)C1(Cc2ccccc2)CCN(Cc2cccc3nccnc23)CC1,-6.1,0.72,-2.9,-1,6.4,-2%,0.8
CCCCc1n[nH]c2c1/C(=N/O)CC(c1ccccc1)C2 (stereo not drawn),0.0,·,-4.3,6,·,-6%,-0.1
NCCCCC(N)c1cn([C@@H](CCC(=O)O)C(=O)N2CCNCC2)nn1 (stereo partly drawn),4.6,·,-4.4,-3,0.7,·,-0.2
CCOc1ccc(OCCCCn2cnc3ccccc3c2=O)cc1,2.4,0.69,-1.2,-6,2.1,-2%,0.5
CCc1ccc(C2C(C#N)=C(N)Oc3n[nH]c(CC(=O)OC)c32)cc1 (stereo not drawn),1.7,0.67,-2.5,-4,2.2,7%,?
O=C(Cc1ccccc1)NCCc1c[nH]c2ccccc12,-0.1,0.63,-1.1,-4,-1.2,4%,1.3
O=C(Cc1ccccc1)Nc1ccc(C(=O)O)cc1,1.3,0.64,1.3,8,-0.1,19%,-4.7
COc1cc(NC(=O)Cn2cnc(C(=O)Nc3ccc(C)c(C)c3)n2)cc(OC)c1OC,·,0.66,7.9,4,-3.9,-6%,·
CC(C)c1cccc(C(C)C)c1NC(=O)COC(=O)[C@H](C)NC(N)=O,-2.1,0.74,1.4,-6,3.6,8%,0.3
Cc1cc(C)nc(Nc2n[nH]c(Cc3ccccc3)n2)n1,·,0.68,·,·,4.8,?,·
Cc1ccc(C(=O)NCCc2cccs2)cc1,2.9,0.7,0.8,7,1.4,·,-4.5
CCCc1cc(=O)[nH]c(SCC(=O)c2ccc3c(c2)OCCO3)n1,2.0,0.68,-0.5,-3,3.4,·,0.8
CC(=O)Nc1cc(C(=O)NCc2ccco2)ccc1Sc1ccc(C)cc1,1.6,0.65,1.6,9,-1.8,12%,0.2
CC(=O)c1c(C)[nH]c(C(=O)Nc2ccc(Cl)cc2F)c1C,0.0,0.72,-5.1,-2,2.2,·,-6.0
Cc1nn(C(=O)CNS(=O)(=O)c2ccccc2)c(C)c1Sc1ccc(Cl)cc1,-3.8,0.66,-2.1,-1,2.6,0%,-1.1
CCC(CO)Nc1ccc(-c2n[nH]c(=O)c3ccccc23)cc1[N+](=O)[O-] (stereo not drawn),2.4,0.69,-2.3,3,5.1,-1%,0.3
O=C(COc1ccc(Br)cc1)N/N=C1\SCC(=O)N1c1ccc(F)cc1,-1.0,·,1.0,7,·,·,0.0
O=C(C[C@@H]1C/C=C\CCCC(=O)OC[C@@H](c2ccccc2)NC1=O)NCCO,5.7,·,1.4,1,3.7,·,0.0
Cc1ccc(C(=O)NNc2ncnc3ccccc23)cc1,-6.0,0.63,1.4,-6,9.4,8%,-1.2
Cn1c(=O)c2c(SCC(=O)NCC3CCCO3)nc(CC(C)(C)C)nc2n(C)c1=O (stereo not drawn),3.5,0.69,6.0,-7,2.9,·,-1.0
O=C(N/N=C/c1ccccn1)C(=O)N1CCCCCC1,-3.2,·,-0.4,-1,·,0%,0.5
C=C(C)Cn1c(-c2cccc([N+](=O)[O-])c2)n[nH]c1=S,-1.3,·,-1.1,9,·,·,-0.5
CCN(CC)c1ccc(/C=N/NC(=O)c2ccoc2C)cc1,-4.1,·,1.2,-5,·,21%,-7.4
O=C(c1ccc(Cl)cc1)[C@@H]1[C@@H]2C(=O)N(c3ccc(Cl)cc3)C(=O)[C@@H]2C2c3ccccc3C=NN21 (stereo partly drawn),-1.0,0.71,-1.7,-5,0.3,-6%,-0.6
COc1cc(OC)cc(-c2c(-c3ccc(F)cc3)c3cc(-c4ccc5[nH]ccc5c4)ccc3n2C)c1,2.5,0.67,-0.4,4,-11,·,0.3
CC(C)(C)OC(=O)NCCCCCNC(=O)c1nc[nH]c1C(=O)N1CCN(C(=O)OC(C)(C)C)CC1,3.1,0.67,-2.3,-2,1.3,·,-1.0
COc1cccc(-c2nn(-c3ccccc3)cc2C(=O)n2nnc3ccccc32)c1,-1.4,0.65,0.6,18,2.0,22%,0.5
CCN1C(=O)C2(/C(=C(\O)c3ccc4c(c3)OCCO4)C(=O)C(=O)N2CCCOC)c2ccccc21 (stereo not drawn),1.9,0.69,0.6,15,7.3,12%&2%,0.1
c1ccc(-c2nc(N3CCNCC3)nc3ccccc23)cc1,2.1,0.71,13,3,-224,11%,1.6
CCOC(=O)C(NC(=O)c1ccccc1)(Nc1cccc(C)n1)C(F)(F)F (stereo not drawn),-2.5,0.66,0.2,1,2.1,-7%,0.0
CCOc1ccc(Oc2ccc(Cl)cc2NC(=O)CCNC(C)=O)cc1,-4.8,0.72,3.0,-6,5.6,-7%,-0.1
CN(c1ccccc1)S(=O)(=O)c1ccc(NC(=O)COc2ccccc2)cc1,-35,0.71,-1.6,-5,3.5,-2%,-0.1
O=C(/C=C/c1ccc2c(c1)OCO2)NC1CCCC1,2.5,0.68,-2.0,11,-18,·,0.6
CC(=O)OCC(=O)C1(O)CCC2C3CC(C)C4=CC(=O)CCC4(C)C3C(O)CC21C (stereo not drawn),·,0.71,1.6,5,0.7,-3%,·
COc1cc(C(=O)N2CCC(c3nc(-c4cccnc4)no3)CC2)cc(OC)c1OC,-4.0,0.74,2.6,1,1.0,5%,-0.7
CCOc1cc(C(=O)Nc2cc(C)ccn2)cc(OCC)c1OCC,3.3,0.73,2.5,0,2.6,66%,0.2
O=[N+]([O-])c1cccc(/C=N/Nc2nc(NCc3ccccc3)nc(N3CCOCC3)n2)c1,0.3,·,5.1,18,·,-4%,0.3
COc1ccc(C2C(C(N)=O)=C(C)Nc3ncnn32)cc1 (stereo not drawn),-1.0,0.7,-3.7,2,3.4,3%,1.0
CCCc1cc(=O)[nH]c(SCC(=O)N2c3ccccc3NC(=O)C2(C)C)n1,-7.3,0.69,-0.3,1,1.2,·,1.2
CSc1nc(C)c(CCOC(=O)c2cccc(Cl)c2)c(=O)[nH]1,-4.9,0.7,-0.5,-9,4.1,-3%,1.0
CCCN(CC(=O)Nc1ccccc1C)C(=O)C1CCN(S(=O)(=O)c2ccccc2C(F)(F)F)CC1,-6.8,0.7,1.6,·,-0.3,-6%,1.7
Cc1cccc(C(=O)NCC(=O)OCC(=O)NC2CCCCC2)c1,3.8,0.67,-0.1,-1,-0.9,-6%,-0.2
N=C(c1ccc([N+](=O)[O-])cc1)N1CCCCCC1,5.6,0.68,-0.6,-4,4.0,8%,-1.1
N#Cc1cc(N2CCCCC2)c([N+](=O)[O-])cc1C#N,2.5,0.69,2.1,-4,-1.9,-2%,0.6
COc1ccc(-c2cc(C(=O)OCC(=O)N3CCOCC3)c3ccccc3n2)cc1,-0.7,0.66,4.2,8,-72,0%,-0.9
Cc1ccc(C(CC(=O)N2CCCCC2)c2ccccc2)c(O)c1C (stereo not drawn),-3.7,0.69,1.1,-11,1.4,-1%,0.7
Cc1cccc(C)c1NC(=O)/C(C#N)=C/c1cccs1,2.6,0.68,9.4,-2,11,11%,-1.1
CC(C)CC1NC(=O)N(CC(=O)Nc2ccc(-c3ccccc3)cc2)C1=O (stereo not drawn),1.3,0.71,1.8,6,-0.6,·,1.7
COc1ccc(Cc2nc(-c3ccc(-n4cccc4)cc3)no2)cc1OC,1.4,0.77,0.0,-1,0.2,?,-0.1
CCCCOC(=O)c1ccc(NC(=O)COC(=O)c2ccc3ncsc3c2)cc1,3.2,0.69,4.4,-4,1.4,-4%,1.0
CCCCC(=O)NNC(=S)NC(=O)c1cccc([N+](=O)[O-])c1,1.5,0.63,0.2,-10,3.5,-2%,1.0
CCC1(CC)NC(=O)N(CC(=O)OCC(=O)Nc2cc(C)ccc2C)C1=O,0.3,0.68,2.8,20,5.2,-1%,0.2
CCN(CC)S(=O)(=O)c1ccc2c(c1)N(CC(=O)NCc1ccco1)C(=O)CO2,0.3,0.69,-4.2,2,1.6,·,-1.1
CS(=O)(=O)n1nc(-c2cccnc2)nc1NCc1ccccc1,-1.0,0.65,-3.9,-16,2.1,·,0.2
Cc1ccc(-c2nnn(CC(=O)N(C)C3CCCCC3)n2)o1,4.0,0.68,-5.6,-7,-1.6,0%,-0.9
O=C(NCc1ccccc1)OCCN1CCN(Cc2ccccc2)CCC1=O,3.0,0.71,1.3,-3,0.3,-2%,0.5
O=C(Cc1cccs1)Nc1ccc(N2CCOCC2)cc1,1.9,0.68,4.5,5,0.1,?,-7.3
C=C(C)CNC(=S)N/N=C/c1ccccc1OCC(=O)O,6.4,·,0.4,2,·,2%,-0.5

# The results go on.
SMILES,LANA-H2A inh,Ecoli growth,HNF4A DNA FP,B2AR ag,UCH37 inh,Vif A3G,Bfl-1 A1 inh
COC(=O)Cc1ccc(NC(=O)c2ccccc2Cl)cc1,0.2,0.65,0.3,10,1.6,-6%,-1.4
O=C(CSc1nc2[nH]c(=O)cc(O)c2s1)NCCc1ccccc1,·,0.72,-0.1,-9,4.0,-9%,·
O=[N+]([O-])c1cccc(-c2nc(-c3ccccn3)no2)c1,0.0,0.66,-1.3,4,2.1,·,-6.7
Cc1c(N(C)S(=O)(=O)c2cc(C(=O)NCC3CCCO3)ccc2Cl)c(=O)n(-c2ccccc2)n1C (stereo not drawn),0.9,0.58,1.2,1,0.6,2%,0.1
O=C(CNC(=O)c1ccco1)NCc1nc2ccccc2[nH]1,-26,0.73,-0.1,-1,4.8,?,0.0
COc1c(O)cc2oc(-c3ccc(O)c(O)c3)cc(=O)c2c1O,7.0,·,-4.4,-5,8.8,·,-8.2
O=C(Nc1ccc(F)c(Cl)c1)C1CC(=O)N(Cc2ccccc2)C1 (stereo not drawn),-0.1,0.69,3.7,-1,1.0,-2%,0.5
O=C(C(Cc1ccccc1)N1C(=O)c2ccccc2C1=O)N1CCc2ccccc21 (stereo not drawn),16,0.76,-0.6,21,1.5,-1%,0.2
Cc1c(OCC(=O)NC(Cc2ccc(Cl)cc2)C(=O)O)ccc2c3c(c(=O)oc12)CCCC3 (stereo not drawn),2.6,0.78,3.0,-18,-31,·,-0.5
COc1ccccc1C/C(N)=N/OC(=O)COc1ccccc1C,0.6,0.65,-0.4,0,0.9,1%,0.2

# In another format: entries from further up
Structure	LANA-H2A inh	Ecoli growth	HNF4A DNA FP	B2AR ag	UCH37 inh	Vif A3G	Bfl-1 A1 inh
CN(c1ccccc1)S(=O)(=O)c1ccc(NC(=O)COc2ccccc2)cc1	-35	0.71	-1.6	-5	3.5	-2%	-0.1
CCCCOC(=O)c1ccc(NC(=O)COC(=O)c2ccc3ncsc3c2)cc1	3.2	0.69	4.4	-4	1.4	-4%	1.0
CSc1nc(C)c(CCOC(=O)c2cccc(Cl)c2)c(=O)[nH]1	-4.9	0.7	-0.5	-9	4.1	-3%	1.0
